Compound activity as filed in PubChem.
D2 potentiator: Beta-Arrestin HTS for Positive Allosteric Modulators of the Human D2 Dopamine Receptor: Potentiators; D(2) dopamine receptor (Homo sapiens), P14416; DiscoveRx D2 beta-arrestin cells, luminescence, 90 min; 100% = 57 uM dopamine signal; potentiation, % (concentration not given with the values); 360,000 tested, 0.23% active; AID 624464, 2012; active = potentiation of 50% or more; inconclusive = 30% to 50%; inactive = 30% or less;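 further: compound concentration not given in the record; tested on top of an EC20 dose of dopamine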
Target sequence (P14416 whole entry, looked up): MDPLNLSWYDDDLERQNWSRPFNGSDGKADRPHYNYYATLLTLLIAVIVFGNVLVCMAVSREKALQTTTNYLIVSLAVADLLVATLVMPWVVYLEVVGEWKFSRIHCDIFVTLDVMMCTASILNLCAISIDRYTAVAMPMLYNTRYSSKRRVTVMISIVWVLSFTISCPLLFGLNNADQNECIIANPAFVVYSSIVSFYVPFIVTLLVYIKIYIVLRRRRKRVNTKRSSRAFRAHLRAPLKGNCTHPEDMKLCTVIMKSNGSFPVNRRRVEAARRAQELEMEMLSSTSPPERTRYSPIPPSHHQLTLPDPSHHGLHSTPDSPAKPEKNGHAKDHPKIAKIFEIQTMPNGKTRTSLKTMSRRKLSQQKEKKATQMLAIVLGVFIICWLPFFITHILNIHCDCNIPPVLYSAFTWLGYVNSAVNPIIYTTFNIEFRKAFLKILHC
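PathHunter D2 cells, attached overnight at 37 deg C, received compound in DMSO plus dopamine at EC20 (50 nM final) for 90 min at 37 deg C. Beta-arrestin recruitment was read as luminescence after 1 h with detection reagent at ambient temperature.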
Six1-Eya2 inh: qHTS Assay for Inhibitors of the Six1/Eya2 Interaction. AID 651725, 2012. activity change, % (no concentration beside the values). 360,000 tested, 0.56% active. Homeobox protein SIX1 (Homo sapiens) + Protein phosphatase EYA2 (Homo sapiens), …. AlphaScreen GST-Six1/His-Eya2 binding, biochemical; stronger effect = lower value; control for the full effect not named in the record; in the data active = activity change below about -65%; inconclusive = about -30% to -65%; inactive = above about -30%; further: on the % scale 0 is the no-effect control and ±100 the full control effect; compound concentration not given in the record
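GST-Six1 + His-Eya2 (5X stock: 250/500 nM); Tris pH 8.0, 300 mM NaCl, 0.05% BSA, 0.02% Tween 20; GSH donor/Ni acceptor beads; 1 h 37 °C dark; AlphaScreen readout.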
D2 agonist: Beta-Arrestin HTS for Positive Allosteric Modulators of the Human D2 Dopamine Receptor: Agonists. DiscoveRx PathHunter D2 beta-arrestin, luminescence, 90 min; 100% = 57 uM dopamine signal. D(2) dopamine receptor (Homo sapiens), P14416. 360,000 tested, 0.084% active. activation, % (concentration not given with the values); in the data active = activation above about 40%; inconclusive = about 15% to 40%; inactive = below about 15%; further: compound concentration not given in the record; the text of the record calls up to 30% inactive
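Agonist mode: compounds alone added to overnight-plated D2 PathHunter cells for 90 min at 37 C, with 57 uM final dopamine (EC100) defining full response. Beta-arrestin recruitment detected by chemiluminescent reagent, read after 1 h at ambient temperature.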
PINK1 modulator: A Quantitative High throughput Screen to Identify Chemical Modulators of PINK1 Expression. PINK1 immunofluorescence, high-content cytometry, 24 h. Potency, µM (series often up to 76.6 µM), without a hit: at the top dose activation (PINK1 increase), most hits filed as activators. 410,000 tested, 0.2% active. AID 624263, 2012; active = well fitted activation curve with a large enough effect; inconclusive = small, poorly fitted or top-dose-only effect; inactive = flat fitted curve, though single readings scatter; cell line not stated here;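 further: potency means the concentration at half of the fitted maximal effect; % of control where 0% means no effect; nearly all actives have a fitted effect of over 65% in size; a mitochondrial uncoupler was the plate control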
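Measures PINK1 amount and localization on or inside mitochondria by immunofluorescence. Stable cells get compounds at 5 concentrations for 24 hours before fixation and staining; CCCP controls included.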
TRPML1 agonist: qHTS for Agonists of the Human Mucolipin Transient Receptor Potential 1 (TRPML1); activation, % (test concentration not listed); TRPML1-expressing cells, Ca2+ dye fluorescence, FDSS; host cell line not named in the record; reference of the full effect not given here; 410,000 tested, 0.12% active; Mucolipin-1 (Homo sapiens), Q9GZU1; in the data active = activation above about 50%; inconclusive = about 30% to 50%; inactive = below about 30%; further: 0% is about no effect; the text of the record puts the active cut at 80%
Target sequence (Q9GZU1 whole entry, looked up): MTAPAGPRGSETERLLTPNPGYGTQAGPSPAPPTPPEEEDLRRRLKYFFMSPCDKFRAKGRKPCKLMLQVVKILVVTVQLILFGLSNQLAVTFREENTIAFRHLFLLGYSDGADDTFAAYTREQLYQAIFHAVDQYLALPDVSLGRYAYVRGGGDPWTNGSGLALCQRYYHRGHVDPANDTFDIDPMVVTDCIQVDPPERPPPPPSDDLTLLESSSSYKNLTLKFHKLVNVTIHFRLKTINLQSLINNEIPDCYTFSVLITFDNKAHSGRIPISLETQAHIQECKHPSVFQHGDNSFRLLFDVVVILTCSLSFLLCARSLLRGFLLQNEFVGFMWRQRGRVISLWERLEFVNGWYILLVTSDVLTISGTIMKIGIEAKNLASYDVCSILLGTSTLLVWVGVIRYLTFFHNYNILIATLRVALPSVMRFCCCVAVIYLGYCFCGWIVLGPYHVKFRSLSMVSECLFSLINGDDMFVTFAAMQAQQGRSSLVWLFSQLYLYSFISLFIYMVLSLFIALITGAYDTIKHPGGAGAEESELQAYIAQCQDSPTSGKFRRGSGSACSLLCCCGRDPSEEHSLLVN
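In this qHTS format, compounds were pin-transferred onto Ca8-dye-loaded TRPML1-DL cells induced with Tet overnight, and intracellular Ca2+ fluorescence was recorded kinetically for 110 s after a 10 s baseline. A subsequent 4uM final 54-4 (EC80) addition followed by a second 110 s read served as the antagonist phase.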
TRPML1 inh: qHTS for Inhibitors of the Human Mucolipin Transient Receptor Potential 1 (TRPML1) | Mucolipin-1 (Homo sapiens), Q9GZU1 | activity change, negative = inhibition, % (no concentration beside the values) | TRPML1-inducible cells, Ca2+ dye fluorescence, FDSS; stronger effect = lower value; inhibition of EC80 agonist-evoked calcium signal | 390,000 tested, 0.02% active; in the data active means activity change below about -50%; inconclusive means about -30% to -50%; inactive means above about -30%;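 further: stimulus is agonist 54-4 at its EC80 concentration; on the % scale 0 is the no-effect control and ±100 the full control effect; compound concentration not given in the record; the text of the record puts the active cut at -80%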
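Tet-induced TRPML1-DL cells loaded with Ca8 no-wash calcium dye were read kinetically on FDSS. Compound addition was followed by EC80 agonist 54-4 (4 uM final); inhibition was read over 110 s.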
Starred values were filed as active, the others as inactive; ? = inconclusive; nt = no result given; [ ] = remark or other dose.

Values run as follows: Six1-Eya2 inh	PINK1 modulator	D2 agonist	D2 potentiator	TRPML1 inh	TRPML1 agonist
CCSC1=N/C(=C\c2cccnc2)C(=O)N1c1ccccc1
    3	11%	-3.4	-14	-3	0.2
CC(C)(C)C1(O)CC(C(F)(F)F)=NN1C(=O)CCc1ccccc1 (configuration not stated)
    3	?	-2.6	-1	8	1.9
COc1ccccc1NC(=O)C1CC(C(C)C)OC1=O (configuration not stated)
    -2	0.4%	-0.1	-7	0	0.3
COc1ccc(NC(=O)N(Cc2cc3cc(OC)c(OC)cc3[nH]c2=O)CC2CCCO2)cc1 (configuration not stated)
    8	2.6%	-1.1	-7	-18	0.3
CC(C)(C)OC(=O)N[C@@H](Cc1ccccc1)[C@H](O)c1ccco1
    4	-0.5%	-1.0	-10	-3	-0.7
CC1(C)N=C(N)N=C(N)N1c1ccccc1
    4	-0.4%	-2.3	-2	3	-0.6
COc1cccc(C(=O)N/N=C(\C)c2cccc(NC(=O)c3ccc(F)cc3)c2)c1OC
    ?	0.7%	-4.9	2	13	0.4
CCOC(=O)N1CCN(C(=O)CSC2=NS(=O)(=O)c3ccccc3N2)CC1
    -1	-5.1%	-3.7	-4	-1	0.5
CCOC(=O)C1(C)CCN1C(=O)c1ccc(C(=O)OC)cc1 (configuration not stated)
    22	0.4%	-4.5	-10	nt	-0.4
CCc1ccc(C(C(=O)NC2CCCC2)N(C(=O)c2csnn2)C2CC2)cc1 (configuration not stated)
    -12	1.6%	-6.9	-11	-1	-1.3
Cc1ccc(NS(=O)(=O)c2c(C)nc3sc(C)cn3c2=O)c(C)c1
    nt	-0.2%	nt	nt	3	-0.4
O=C(O)c1ccccc1Nc1ccccc1C(=O)O
    -8	?	2.3	11	-20	-0.1
COc1ccc(-c2noc(CCCC(=O)Nc3ccc(C(N)=O)cc3)n2)cc1OC
    -3	-1.6%	0.6	-4	-6	-0.5
COc1cc(C(=O)N2CCN(C/C=C/c3ccccc3)CC2)cc(OC)c1OC
    -1	2.8%	2.0	-5	13	-0.3
CCCCS(=O)CC(CS(=O)CCCC)OC(=O)c1ccccc1 (configuration not stated)
    2	2.7%[38.3 µM]	-2.9	-9	-9	0.3
COc1cc(C)c(Cl)cc1S(=O)(=O)NCc1ccccn1
    -1	-0.1%	-0.1	-3	3	1.3
COc1ccc(C(=O)NCC2(c3ccc(OC)c(OC)c3)CCCC2)c(OC)c1
    -2	0.4%	-6.4	-2	4	1.0
CC(C)CN(C(=O)COC(=O)c1cccs1)c1c(N)n(Cc2ccccc2)c(=O)[nH]c1=O
    5	2.7%	-0.5	-2	-2	0.1
O=C(CN1CCN(Cc2ccc(Cl)cc2)CC1)N/N=C/c1c[nH]c2ccccc12
    -9	1.9%	0.0	-22	-12	0.1
Cc1ccc(S(=O)(=O)C(CNC(=O)C(=O)NCCc2ccc(Cl)cc2)c2cccs2)cc1 (configuration not stated)
    nt	7.4%	nt	nt	13	1.7
Cc1ccc(S(=O)(=O)c2nc(NCCN(C)C)sc2Cl)cc1
    1	-3.2%	-2.3	-5	12	-0.4
O=C(NCC1CC1)C1Cc2c(-c3cccc(F)c3)ccnc2O1 (configuration not stated)
    4	3.7%	4.9	-3	nt	-0.8
Cc1ccc(C(=O)NCCCC(=O)O)o1
    3	-0.6%	-1.8	23	-5	-0.3
CCOC(=O)C1C(=O)C=C(/C=C/c2ccccc2)CC1c1ccc(Cl)cc1 (configuration not stated)
    0	2.0%[38.3 µM]	-1.2	-4	16	1.4
Cc1occc1-c1nnc(SCC(=O)NCCc2ccccc2)o1
    7	2.4%	0.8	-4	23	1.5
Cc1nc(N)nc(N/N=C/c2ccccc2)n1
    -11	0.8%	-6.9	-7	nt	nt
Cc1cccc(CNC(=O)CCCN2C(=O)CCn3nc(-c4cccn4C)cc32)c1
    nt	4.9%	nt	nt	-25	0.6
O=C(Nc1ccc2oc(-c3ccccc3)nc2c1)c1ccccc1F
    -2	2.4%	-3.3	7	4	-0.2
COc1ccc(NC2CC(=O)NC2=O)cc1 (configuration not stated)
    2	-0.9%	-2.8	-2	0	-0.5
O=C(CSc1ccccc1C(=O)NCc1ccccc1)NC1CCCCCCC1
    2	-1.2%	-0.1	-16	-4	1.2
CN(C)C(CNC(=O)CCS(=O)(=O)c1ccccc1)c1ccccc1 (configuration not stated)
    -3	-0.7%	-2.1	-9	2	-0.2
COc1cc([C@H]2[C@@H]3CCCC[C@]3(O)CCN2CC(=O)Nc2ccc(C)cc2)ccc1O
    -1	1.7%	-0.1	5	15	1.0
CC(C)C(=O)Nc1ccc(C(=O)NNC(=O)c2cccs2)cc1
    4	0.3%	-3.3	-3	-20	-0.4
C=CCNC(=S)N/N=C(\C)c1cc(OC)c(OC)c(OC)c1
    -5	3.2%	-2.0	-17	-26	-0.9
CC1(C)CC(=O)C=C(NCCN2CCN(C(=O)Nc3ccc(Cl)cc3)CC2)C1
    -4	-1.1%	-1.9	-19	21	-0.9
Cc1cccc(-n2ncc3c(NCc4ccccc4)ncnc32)c1
    -4	12%	2.9	1	65	0.0
Cc1ccc2nc(NC(=O)COc3ccc(F)cc3)sc2c1
    nt	1.0%	nt	nt	-8	-1.0
O=CN1N=C(c2ccccc2)CC1c1ccccc1[N+](=O)[O-] (configuration not stated)
    0	1.4%	0.8	8	1	0.8
Cc1ccc(-n2nnnc2SCC(=O)NC2CCCc3ccccc32)c(C)c1 (configuration not stated)
    23	-1.9%	-4.1	-4	-11	0.2
Cc1ccc(S(=O)(=O)C2(C(=O)Nc3nccs3)CC2)cc1
    -2	0.0%	8.8	11	11	-0.8
O=C(COC(=O)c1ccccc1O)Nc1cccc(S(=O)(=O)N2CCCC2)c1
    -8	-0.2%	-1.1	-1	-13	0.5
CCN1C(=O)c2ccccc2Sc2ccc(NC(C)=O)cc21
    nt	0.8%	nt	nt	-3	1.4
O=C(CN1N=C(c2ccccc2)CCC1=O)NCCCN1CCc2ccccc2C1
    -7	-1.1%	-2.5	-40	-3	-0.1
COc1ccc(-n2ncc3c(NCCCN4CCOCC4)ncnc32)cc1
    -10	6.4%[38.3 µM]	0.0	-21	-11	0.4
CCOc1cccc(=O)c2c(C)n(Cc3ccco3)c(C)c12
    -2	nt	-3.7	-19	-4	-0.4
O=[N+]([O-])c1[nH]cnc1/C=C/c1ccccc1
    -6	-2.6%	-3.4	-10	11	-0.9
Cc1nnc(SCC(=O)N/N=C/c2cc(Cl)c(O)c(Cl)c2)s1
    0	-2.2%	-0.2	-2	24	1.1
CCCCCN1C(C(=O)c2ccccc2)=C(NC(=O)c2ccc(OC)cc2)c2ccccc2S1(=O)=O
    nt	2.3%	nt	nt	11	-0.7
CCCc1c(C(=O)Nc2ccc(OC)cc2)cnn1-c1ccccc1
    -5	1.3%	-2.1	-20	4	0.0
COCCn1c(SCC(=O)c2cc(C)ccc2C)nc2cc(C(=O)NC3CCCC3)ccc2c1=O
    nt	4.1%	nt	nt	-2	0.6
CCOC(=O)C1CCCN(C(=O)c2cc3ncc(Br)cn3n2)C1 (configuration not stated)
    -8	-0.7%	-2.9	-11	-6	-0.9
COc1ccc(NC(=S)NCc2ccc(Cl)cc2)c(OC)c1
    4	1.3%	-3.6	-20	-8	-0.7
COc1cc(C(=O)NCCC(=O)NCCc2ccc(Cl)cc2)cc(OC)c1OC
    1	-0.6%	0.1	-14	14	1.5
O=C(CC1CCCCC1)Nc1ccccc1-c1ccccc1
    2	3.3%	-0.6	-7	-7	1.7
CCOC(=O)C1CCN(S(=O)(=O)c2c(C)[nH]c(C)c2C(=O)N2CCCCC2)CC1
    1	-0.3%	-0.2	-6	-7	0.3
CC(C)N1CCN(Cc2nc3c(s2)CCCC3)CC1CCO (configuration not stated)
    0	0.2%	2.0	-5	1	0.2
COc1cccc(C(=O)Oc2ccccc2/C=C\C(=O)c2cc3ccccc3o2)c1
    -3	-1.7%	-7.7	0	-4	0.3
CCOC(=O)c1cc(-c2ccc3c(c2)OCCO3)nc2c1c(C)nn2CCC#N
    19	0.5%	-2.9	3	8	-0.8
O=C(c1cccnc1)N1CCN(S(=O)(=O)c2cccc(Cl)c2)CC1
    -2	0.0%	-1.9	-14	4	-0.2
O=C(NC(=S)Nc1cnc2ccccc2c1)c1ccccc1
    -18	0.0%	-4.8	-22	27	-0.1

Next structures follow.
Values run as follows: Six1-Eya2 inh	PINK1 modulator	D2 agonist	D2 potentiator	TRPML1 inh	TRPML1 agonist
CC(=O)NCCc1nc2ccccc2n1CCc1ccccc1
    -3	-1.0%	-1.3	-1	-8	1.0
c1ccc(C2C3=C(Nc4ncnn42)c2ccccc2CCC3)cc1 (configuration not stated)
    -7	-4.8%[38.3 µM]	-3.2	-8	3	3.5
COc1ccccc1CNS(=O)(=O)c1ccc2c(c1)CCCN2C(C)=O
    -2	0.7%	2.4	8	-15	-0.3
Cc1cc(C)c(NC(=O)Nc2ccccc2)c(Cl)c1
    11	0.1%	0.1	-17	-14	-0.4
Cc1ccc2c(c1)-c1c(cnn1CC(=O)N1CCN(c3cccc(C(F)(F)F)c3)CC1)CO2
    nt	-0.2%	nt	nt	19	0.5
O=C(CN1C(=O)NC2(CCCCC2)C1=O)Nc1cccc(S(=O)(=O)N2CCOCC2)c1
    0	-0.9%	-5.2	-12	-8	-0.4
CC1=C(C(=O)N2CCOCC2)CC(CC(=O)NCCCCc2ccccc2)C(=O)N1Cc1ccc(F)cc1 (configuration not stated)
    -3	0.0%	3.7	3	-8	-1.0
COc1ccc(-c2nc(CS(=O)CC(=O)NC3CCCCCC3)c(C)o2)cc1 (configuration not stated)
    -1	-1.2%	-1.6	-7	8	-0.4
CCOc1ccc(C)cc1S(=O)(=O)n1ccc(C)n1
    9	-2.1%	-1.4	-4	-3	-0.5
CCCCNC(=O)n1c(SC)nc2ccccc21
    -2	0.1%	-0.8	-13	17	2.4
CC(=O)Nc1ccc(S(=O)(=O)NCC2CC3CCC2C3)cc1 (configuration not stated)
    -2	-0.8%	1.5	-2	8	-0.2

Single records, from the list above. Order of values: Six1-Eya2 inh, PINK1 modulator, D2 agonist, D2 potentiator, TRPML1 inh, TRPML1 agonist
O=C(CN1C(=O)NC2(CCCCC2)C1=O)Nc1cccc(S(=O)(=O)N2CCOCC2)c1 as listed: 0, -0.9%, -5.2, -12, -8, -0.4
CC(=O)Nc1ccc(S(=O)(=O)NCC2CC3CCC2C3)cc1 (configuration not stated) as listed: -2, -0.8%, 1.5, -2, 8, -0.2
